# Source: PubChem BioAssay (several laboratories)
# RGS16-Gao = modulates binding between human RGS16 and Galphao. bead-based flow cytometry RGS16-Galphao binding, fluorescence; actives lie on both sides. binding response (% of control), % at 10 µM. hit rate 0.38% among 220,000. AID 1441;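 active = below 25% or above 175%, edge rows of some plates excepted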;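 also: Galphao activated by GDP with aluminum fluoride before binding; 100% = wells without compound and 0% = beads without RGS; some results beyond the cut were filed as inactive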
# PKD1 kinase inh = PKD1 (human) kinase inhibition; Q15139; PKD1 kinase fluorescence polarization assay; inhibition, %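 (about 10 µM by stock and volumes)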; hit rate 0.056% among 200,000; AID 797;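 active = inhibition of 50% or more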;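 also: controls were vehicle for no effect and a reference inhibitor for full effect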
# Target sequence (Q15139 whole entry, looked up): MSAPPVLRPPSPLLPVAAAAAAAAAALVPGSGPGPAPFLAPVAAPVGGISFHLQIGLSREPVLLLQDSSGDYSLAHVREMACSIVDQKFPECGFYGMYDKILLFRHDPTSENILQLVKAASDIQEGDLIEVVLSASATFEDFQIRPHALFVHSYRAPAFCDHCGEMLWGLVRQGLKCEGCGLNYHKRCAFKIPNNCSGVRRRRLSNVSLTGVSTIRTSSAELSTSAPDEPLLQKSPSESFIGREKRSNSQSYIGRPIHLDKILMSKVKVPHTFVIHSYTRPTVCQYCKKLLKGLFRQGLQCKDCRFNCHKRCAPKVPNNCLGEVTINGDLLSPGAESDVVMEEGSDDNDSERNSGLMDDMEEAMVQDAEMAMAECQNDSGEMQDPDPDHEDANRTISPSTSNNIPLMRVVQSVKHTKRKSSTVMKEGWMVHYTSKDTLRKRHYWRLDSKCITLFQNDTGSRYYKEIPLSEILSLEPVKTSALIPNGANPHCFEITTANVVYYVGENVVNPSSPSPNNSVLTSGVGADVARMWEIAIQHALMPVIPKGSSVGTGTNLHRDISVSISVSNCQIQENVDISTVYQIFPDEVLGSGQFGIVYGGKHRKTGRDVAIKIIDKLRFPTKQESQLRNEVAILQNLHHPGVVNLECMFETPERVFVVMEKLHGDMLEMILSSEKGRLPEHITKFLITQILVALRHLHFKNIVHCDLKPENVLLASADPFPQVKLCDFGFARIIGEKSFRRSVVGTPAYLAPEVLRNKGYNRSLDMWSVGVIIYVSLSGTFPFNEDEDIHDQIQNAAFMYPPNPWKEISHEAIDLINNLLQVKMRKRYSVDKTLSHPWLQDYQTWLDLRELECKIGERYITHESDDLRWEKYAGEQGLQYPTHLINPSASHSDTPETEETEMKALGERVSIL
# GALR2 ag = agonists of human galanin receptor 2 (GALR2); activation, %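 (tested at 5 µM)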; AID 803; GALR2-expressing cells, agonist activation read-out; O43603; hit rate 0.48% among 140,000;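 active = above mean plus 3 SD of all compounds, about 5% in these data, not always enough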;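 also: 0% = vehicle buffer wells and 100% = reference agonist at full effect; tested in CHO reporter cells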
# HSV augment = HSV replication enhancement. HSV replication augmentation in cells, fold increase. maximum fold increase. hit rate 0.005% among 220,000;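 active = peak rise of 1.5-fold or more in the series; inconclusive = self-fluorescent or not available for retest; tested in PC3 cells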;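 also: first round at 10 µM; read as green reporter fluorescence; hits show the peak of a series up to 25 µM; 1 = signal of infected wells without compound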
# Insulin prom inh = TRM-6 insulin promoter activity inhibition. TRM-6 cells (human fetal islet line), insulin promoter-eGFP reporter, imaging; reporter expression induced with tamoxifen. inhibition, % at 2 µM. hit rate 0.9% among 130,000;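 active = inhibition above the mean plus 3 SD, with well images judged a real hit on visual review, cut at about 60% in these data, passing the limit was not always enough; inconclusive = inhibition over the cutoff but images rejected on review; inactive = inhibition not above the cutoff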
# Insulin prom inh cell count = second read-out of Insulin prom inh, no call of its own (marks repeat the call); normalized cell count, %; measured here: cell count, toxicity; reference of the scale not given here;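 cells exposed to compound for 48 h; stained nuclei by imaging scaled within each plate; lower means fewer cells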
# HSV augment primary fold = second read-out of HSV augment, no call of its own (marks repeat the call); fold increase; compound at 10 µM; measured here: primary screen fold increase 10 uM; tested in PC3 cells;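 GFP signal in the first replicate; 1 = infected wells without compound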
# Numbers without * were called inactive; i = inactive; ? = inconclusive; nt = no result given.
SMILES,RGS16-Gao,PKD1 kinase inh,GALR2 ag,HSV augment,HSV augment primary fold,Insulin prom inh,Insulin prom inh cell count
Cc1cc(C)nc(NC(=NCCc2c[nH]c3ccccc23)NC(=O)Nc2cccc([N+](=O)[O-])c2)n1,97.4,-12.7,-1.8,i,0.89,20.0,105.2
Cc1ccsc1-c1ccnc(-n2cccc2)n1,112.9,-10.4,-4.3,nt,nt,17.9,112.9
N/C(=N\OC(=O)c1cccc2ccccc12)c1ccc(Br)cc1,95.9,-2.6,-0.7,i,0.96,9.7,94.6
O=C(Nc1ccc(S(=O)(=O)N2CCCc3ccccc32)cc1)C1CCCO1 (stereo not drawn),98.1,0.1,-0.9,i,1.19,-107.7,56.6
O=C(NNc1ccc(F)cc1F)c1c(F)cccc1Cl,98.5,nt,nt,i,1.02,nt,nt
CSCc1cc(N(C)C)nc(SCc2ccc(Cl)cc2Cl)n1,103.1,-0.1,-0.2,i,0.92,-38.2,107.4
O=C1c2cccc3cccc(c23)C(=O)N1CCCSc1ncn[nH]1,103.6,5.4,nt,i,0.97,nt,nt
CCN=C1SC(CC(=O)Nc2ccc(C)cc2)C(=O)N1CC (stereo not drawn),103.7,0.5,-1.9,i,0.95,15.2,90.2
Cc1cc(NC(=O)CN2C(=O)NC(CCc3ccccc3)C2=O)no1 (stereo not drawn),104.5,-2.4,nt,i,0.87,nt,nt
CN(C(=O)c1cccnc1)c1nnc(-c2cnccn2)s1,98.5,-1.2,-0.5,i,1.05,57.1,128.7
CCOC(=O)C(C)c1nc2ccccc2[nH]c1=O (stereo not drawn),100.8,-1.6,-0.7,i,0.7,0.0,125.5
COC(=O)c1cc(=O)n(CCc2ccccc2)c(=Nc2ccc(F)cc2)s1,117.7,-8.5,-1.0,i,0.61,nt,nt
c1ccn2cc(-c3ccc4c(c3)OCCO4)nc2c1,126.0,-3.1,nt,i,1,71.4*,143.0*
COc1ccccc1-c1nnc(NC(=O)c2ccccc2F)o1,99.2,3.8,-2.0,i,1.01,nt,nt
COc1ccc(C/C(C)=N/NC(=S)Nc2ccccc2)cc1,103.8,-1.7,-1.0,i,0.99,-28.0,158.0
CC[n+]1oc(-c2ccccc2)cc1C,89.8,-7.2,nt,i,0.94,38.9,158.6
Cc1cccn2c(=O)c3cc(C(=O)NC(C)c4ccccc4)c(=N)n(CCCn4ccnc4)c3nc12 (stereo not drawn),103.5,nt,nt,i,0.75,nt,nt
CCNC(=O)CN(c1ccccc1)S(=O)(=O)c1ccc(Cl)cc1,90.4,-2.3,-1.3,i,1.03,-16.7,106.6
CCCCN1C(=O)C2ON(c3ccccc3C)C(c3ccco3)C2C1=O (stereo not drawn),100.4,3.0,-0.6,i,0.96,nt,nt
CC(C)Cn1c(=S)[nH]c2cc(Cl)ccc21,94.3,-2.4,nt,i,0.83,nt,nt

# Part of the list above, as tab-separated lines.
smiles	RGS16-Gao	PKD1 kinase inh	GALR2 ag	HSV augment	HSV augment primary fold	Insulin prom inh	Insulin prom inh cell count
CC(C)Cn1c(=S)[nH]c2cc(Cl)ccc21	94.3	-2.4	nt	i	0.83	nt	nt
CCOC(=O)C(C)c1nc2ccccc2[nH]c1=O (stereo not drawn)	100.8	-1.6	-0.7	i	0.7	0.0	125.5
Cc1cccn2c(=O)c3cc(C(=O)NC(C)c4ccccc4)c(=N)n(CCCn4ccnc4)c3nc12 (stereo not drawn)	103.5	nt	nt	i	0.75	nt	nt
CCCCN1C(=O)C2ON(c3ccccc3C)C(c3ccco3)C2C1=O (stereo not drawn)	100.4	3.0	-0.6	i	0.96	nt	nt
COC(=O)c1cc(=O)n(CCc2ccccc2)c(=Nc2ccc(F)cc2)s1	117.7	-8.5	-1.0	i	0.61	nt	nt
COc1ccccc1-c1nnc(NC(=O)c2ccccc2F)o1	99.2	3.8	-2.0	i	1.01	nt	nt
CC[n+]1oc(-c2ccccc2)cc1C	89.8	-7.2	nt	i	0.94	38.9	158.6

# (cont.)
SMILES,RGS16-Gao,PKD1 kinase inh,GALR2 ag,HSV augment,HSV augment primary fold,Insulin prom inh,Insulin prom inh cell count
O/N=C(/CCc1ccccc1)C1(O)CCCCC1,106.6,-5.0,-2.3,i,0.71,-64.5,106.3
COC(=O)c1ccccc1NC(=O)c1cc2ncc(Br)cn2n1,107.8,3.6,-0.8,i,0.97,32.1,146.8
COC(=O)c1cc(Br)c(=O)n(CCc2ccccc2)c1,103.8,5.4,-1.5,i,0.94,nt,nt
CCn1c(CNC(=O)c2cccc(C)c2)nnc1SCC(=O)NC1CCCCC1C (stereo not drawn),100.2,2.8,-1.3,i,1.01,17.9,109.5
CCC(C)N(C(=O)c1csnn1)C(C(=O)NC(C)(C)C)c1ccccc1 (stereo not drawn),76.3,-10.7,-3.6,i,1.05,-71.4,89.5
COc1cccc(/C=N/NC(=O)C(=O)NCc2cccnc2)c1,105.6,-8.7,-0.6,i,0.78,16.7,112.0
Cc1cccc(C(=O)N2CCCCCC2)c1,104.3,6.1,-0.1,i,1.05,0.0,139.0
Cc1nc2ccccc2nc1N1CCCCC1,140.1,-3.9,-2.5,i,0.983,nt,nt
CCOC(=O)C1CCN(C(=O)Cc2ccccc2OC)CC1,100.1,-7.3,nt,i,0.92,-33.3,125.4
CN(C)N1C(N)=C(C#N)C(c2cccc3ccccc23)C2=C1CC(c1ccccc1)CC2=O (stereo not drawn),110.4,-11.7,-0.2,i,0.61,5.4,103.4
O=C(ON=C1CCN(c2ccc([N+](=O)[O-])cc2)CC1)c1ccccc1,101.9,1.3,-0.7,nt,nt,nt,nt
OCC[C@H]1C[C@@H](O)[C@H](O)[C@]2(CCCCO2)O1,91.4,nt,nt,i,0.945,nt,nt
CCOC(=O)c1cc(C(=O)n2cc(Cl)cn2)nn1C,110.9,-3.4,-1.6,i,0.99,-28.6,131.5
COc1cccc(OCCOc2cccc(/C=N/n3cnnc3)c2)c1,122.1,-3.7,-0.9,i,0.82,-61.6,69.5
Cc1cc(CSc2ccccc2)ccc1NC(=O)c1ccc(Br)cc1,94.7,-2.2,-1.3,i,0.94,nt,nt
O=C(COc1ccc2ccccc2c1)Nc1nc2ccccc2[nH]1,105.7,-1.6,-1.3,i,1.02,-21.9,136.8
O=C(NN=C(Cc1ccccc1)Cc1ccccc1)c1ccccc1F,103.9,3.5,nt,i,0.86,nt,nt
Cc1oc(/C=N/NC(=O)CN(c2ccccc2Cl)S(C)(=O)=O)cc1Br,102.8,-10.8,-0.4,i,0.92,35.9,78.1
Nc1ccc(-c2ccc(N)cc2C(F)(F)F)c(C(F)(F)F)c1,109.7,-2.3,-0.5,i,0.84,-53.6,76.9
CC(C)OC(=O)c1nnn(-c2nonc2N)c1CN1CCCCCC1,104.9,-7.5,-0.2,i,0.77,nt,nt
O=C(CN1C2=NCCCN2c2ccccc21)c1cccs1,101.4,-4.5,-0.5,i,0.94,-38.7,75.7
COc1ccc(-c2nc3c4ccccc4ccn3c2CN2CCCCC2)cc1OC,96.6,nt,nt,i,0.89,nt,nt
COc1cccc2cc(C(=O)N3CCN(C(=O)c4ccccc4)CC3)c(=O)oc12,103.1,-0.7,-1.2,i,1.03,16.3,113.6
CO/N=C/c1ccc(N2CCN(C(=O)c3cccc(Cl)c3)CC2)c([N+](=O)[O-])c1,120.7,-10.2,-0.4,i,0.95,-6.7,72.3
COc1ccccc1N(C(=O)Cn1nnc2ccccc21)C(C(=O)NCc1ccco1)c1ccc(C)o1 (stereo not drawn),107.3,-7.6,-2.6,i,0.86,-28.6,92.6
NCCCC[C@H]1CNC(=S)N1CC1(c2ccccc2)CC1,98.2,nt,nt,i,1.13,nt,nt
Cc1cc(C(=O)NC2CCCc3ccccc32)no1 (stereo not drawn),96.7,-10.5,-1.6,i,0.71,11.5,136.1
COc1ccc(NC(=O)C2(c3ccccc3)CCCC2)cc1,98.8,-7.8,nt,i,1.04,nt,nt
COc1ccc(NC(C)=O)cc1NC(C)c1nc2sc(C)c(C)c2c(=O)[nH]1 (stereo not drawn),97.2,-2.3,nt,i,1.05,nt,nt
CCOC(=O)C1(C/C(C)=N/NC(N)=O)CC(C)(C)OC1=O (stereo not drawn),103.1,1.1,-0.3,i,1.1,nt,nt
CCCCNC(=O)c1sc2nc(C)cc(COC)c2c1-n1cccc1,87.5,-0.7,-1.2,nt,nt,nt,nt
Cc1c(C(=O)N2CCN(CCc3ccccc3)CC2)oc2ccccc12,102.2,1.0,-1.1,i,0.95,18.8,66.8
COc1ccc(N(CC(=O)Nc2ccc(C(N)=O)cc2)S(=O)(=O)c2ccc(C)c([N+](=O)[O-])c2)cc1,96.5,-3.8,nt,i,0.95,nt,nt
COC(=O)c1ccc(/C=N/NC(=O)CC(=O)NCc2cccnc2)cc1,102.7,-3.0,nt,i,0.86,nt,nt
Cc1ccc(C)n1-n1cnc2sc3c(c2c1=O)CCC3,100.1,5.3,-1.1,i,0.91,-28.6,131.5
Cc1nn2c(N)csc2nc1=O,102.8,0.1,-1.7,i,0.9,nt,nt
COC(=O)c1cc(C(=O)OC)n(Cc2ccc(F)cc2)n1,102.6,-4.5,-0.1,i,1.07,-407.7,71.7
Cc1[nH]nc2c1-c1nc3ccccc3nc1C(C)(C)C2,99.8,57.8*,-0.3,i,0.77,nt,nt
Cc1ccccc1NC(=O)c1ccc2c(c1)OCCO2,94.8,-5.8,0.2,i,0.97,25.0,106.6
COc1ccccc1-c1ccc(/C=C2/C=C(C)OC2=O)o1,103.4,-8.2,1.4,i,1.19,11.1,80.6
COc1cc2c(cc1NC(=O)CN(C)Cc1ccc(OC)c(OC)c1)oc1ccccc12,102.2,-3.8,-0.2,i,0.89,nt,nt
Cc1ccc(NC(=O)CSc2nnc(CCNC(=O)OC(C)(C)C)o2)c(C)c1,103.8,-5.3,0.0,i,1,-24.1,140.7
CCOc1ccc(N(CC(=O)N/N=C/c2ccc(OC(C)C)cc2)S(C)(=O)=O)cc1,106.6,12.9,-1.1,i,0.88,-13.3,264.1
O=C1CC(c2ccc(O)cc2)Oc2cc(O)cc(O)c21 (stereo not drawn),97.0,-4.3,-0.9,i,0.93,-13.6,75.9
Cc1ccc(N2C(=O)C3C(C(=O)c4ccccc4)=NN(c4ccccc4)C3C2=O)cc1 (stereo not drawn),149.7,2.6,-1.3,?,nt,35.7,88.7
CN(C(=O)c1ccco1)c1nc2c(s1)CCCC2,105.4,-0.9,-0.9,i,1,12.5,96.7
CCOC(=O)Nc1c(C(=O)OC)[nH]c2cccc(OC)c12,124.6,-1.4,-0.7,i,0.89,-31.6,112.5
Cc1ccc2cc(/C=N/NC(=O)c3ccccc3O)c(Cl)nc2c1,189.7,-3.3,-1.1,i,1.07,nt,nt
CN(C)C(=O)c1cc(C(=O)c2ccccc2Cl)c[nH]1,106.3,-2.2,nt,i,0.85,nt,nt
CCCC(=O)Nc1nc(-c2ccccc2)ns1,105.1,-1.4,-1.2,i,0.74,nt,nt
# Later entries
SMILES,RGS16-Gao,PKD1 kinase inh,GALR2 ag,HSV augment,HSV augment primary fold,Insulin prom inh,Insulin prom inh cell count
COc1ccc(NC(=O)C2CCCN(S(=O)(=O)c3c(C)[nH]c(=O)[nH]c3=O)C2)cc1Cl (stereo not drawn),99.4,10.5,nt,i,1.06,nt,nt
COc1cc(CN2CCNC(=O)C2CC(=O)NCc2csc(C(C)C)n2)cc(OC)c1 (stereo not drawn),103.5,0.7,nt,i,1.02,nt,nt
O=C(CC1C(=O)NCCN1Cc1ccc(-c2ccccc2)cc1)NCc1ccccc1 (stereo not drawn),104.1,-8.5,nt,i,0.91,nt,nt
CC(C)(C)c1nnc(N/N=C/c2ccc(Br)cc2)n(N)c1=O,96.8,-5.8,-1.3,i,0.92,-8.0,100.3
CSc1ccccc1Nc1ncnc(N)n1,107.0,nt,nt,i,1,nt,nt
COc1cccc(NC(=O)Nc2cccn(Cc3ccccc3)c2=O)c1,104.1,-11.4,-2.4,i,1.02,-65.7,224.0
CCCOc1cccc(C2/C(=C(/O)c3ccc(F)cc3)C(=O)C(=O)N2CCN(C)C)c1 (stereo not drawn),159.1,15.6,-2.2,i,0.993,nt,nt
CCS(=O)(=O)CCSc1nc2ccccc2s1,91.5,-2.8,-0.1,i,0.99,nt,nt
c1cc(-c2nnc3n2CCCCC3)ccn1,104.0,-8.1,-0.8,i,1.15,nt,nt
CC(C)CNC(=O)CSc1nnc(-c2ccccn2)n1Cc1ccccc1,117.9,-15.5,-0.5,i,1.02,2.9,111.3
Nc1ccc(SCCN2C(=O)c3ccccc3C2=O)cc1,100.4,2.4,0.1,i,1,nt,nt
COC(=O)[C@@H]1C[C@@H]2CC[C@@H](O)C[C@@H]2N1Cc1ccccc1OS(=O)(=O)c1ccc(C)cc1,98.4,nt,nt,i,1.02,nt,nt

# Hits appear at their usual frequency. Share with any hit: about 1.3%.
